Assay outcomes deposited in PubChem by several laboratories.
Insulin prom inh = TRM-6 insulin promoter activity inhibition | TRM-6 cells (human fetal islet line), insulin promoter-eGFP reporter, imaging; reporter expression induced with tamoxifen | inhibition, % at 2 µM | 130,000 compounds, 0.9% hits;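 active = inhibition above the mean plus 3 SD, with well images judged a real hit on visual review, cut at about 60% in these data, passing the limit was not always enough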
PKD1 inh = inhibitors of human PKD1 kinase. Q15139. 200,000 compounds, 0.056% hits. inhibition, %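 (about 10 µM by stock and volumes)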. PKD1 kinase fluorescence polarization assay;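 active = inhibition of 50% or more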;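 also: controls were vehicle for no effect and a reference inhibitor for full effect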
GALR2 ag = GALR2 (human) receptor agonism. O43603. GALR2-expressing cells, agonist activation read-out. activation, %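 (tested at 5 µM)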. 140,000 compounds, 0.48% hits. AID 803;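 active = above mean plus 3 SD of all compounds, about 5% in these data, not always enough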;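 also: 0% = vehicle buffer wells and 100% = reference agonist at full effect; tested in CHO reporter cells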
Target sequence (O43603 whole entry, looked up): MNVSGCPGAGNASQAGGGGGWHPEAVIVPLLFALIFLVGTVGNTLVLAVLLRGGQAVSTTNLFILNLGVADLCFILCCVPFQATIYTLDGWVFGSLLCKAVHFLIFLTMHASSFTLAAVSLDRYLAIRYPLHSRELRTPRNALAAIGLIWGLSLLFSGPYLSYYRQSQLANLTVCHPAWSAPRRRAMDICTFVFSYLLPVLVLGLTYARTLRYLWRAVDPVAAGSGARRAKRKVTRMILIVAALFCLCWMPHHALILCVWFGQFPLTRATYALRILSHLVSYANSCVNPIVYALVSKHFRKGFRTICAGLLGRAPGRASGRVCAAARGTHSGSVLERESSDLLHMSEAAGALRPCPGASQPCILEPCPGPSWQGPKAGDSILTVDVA
HSV augment = increases HSV replication in cells; HSV replication augmentation in cells, fold increase; maximum fold increase; 220,000 compounds, 0.005% hits; AID 1956;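 active = peak rise of 1.5-fold or more in the series; tested in PC3 cells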;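 also: first round at 10 µM; read as green reporter fluorescence; hits show the peak of a series up to 25 µM; 1 = signal of infected wells without compound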
RGS16-Gao HTS = RGS16-Galphao interaction regulator (human). bead-based flow cytometry RGS16-Galphao binding, fluorescence; actives lie on both sides. binding response (% of control), % at 10 µM. 220,000 compounds, 0.38% hits. AID 1441;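 active = below 25% or above 175%, edge rows of some plates excepted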;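 also: Galphao activated by GDP with aluminum fluoride before binding; 100% = wells without compound and 0% = beads without RGS; some results beyond the cut were filed as inactive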
Target sequence (O15492 whole entry, looked up): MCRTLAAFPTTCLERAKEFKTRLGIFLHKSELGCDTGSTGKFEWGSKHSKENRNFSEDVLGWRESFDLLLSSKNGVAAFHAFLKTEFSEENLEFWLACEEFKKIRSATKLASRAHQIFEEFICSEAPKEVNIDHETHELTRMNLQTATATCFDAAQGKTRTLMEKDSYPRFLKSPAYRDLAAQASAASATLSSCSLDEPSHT
Target sequence (P09471 whole entry, looked up): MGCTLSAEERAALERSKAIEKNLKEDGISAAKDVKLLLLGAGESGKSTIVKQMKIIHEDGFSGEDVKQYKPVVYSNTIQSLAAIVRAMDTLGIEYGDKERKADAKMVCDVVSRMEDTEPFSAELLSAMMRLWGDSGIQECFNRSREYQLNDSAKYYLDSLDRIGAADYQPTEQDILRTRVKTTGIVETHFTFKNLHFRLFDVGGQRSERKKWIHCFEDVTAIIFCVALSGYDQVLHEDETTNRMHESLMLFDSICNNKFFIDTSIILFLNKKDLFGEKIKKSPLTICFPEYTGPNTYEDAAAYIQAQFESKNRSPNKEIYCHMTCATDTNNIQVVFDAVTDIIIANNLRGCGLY
Insulin prom inh cell count = recorded beside Insulin prom inh, whose call it bears; normalized cell count, %; measured here: cell count, toxicity; reference of the scale not given here;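 cells exposed to compound for 48 h; stained nuclei by imaging scaled within each plate; lower means fewer cells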
HSV augment primary fold = further read-out of HSV augment, marked with its call; fold increase; compound at 10 µM; measured here: primary screen fold increase 10 uM; tested in PC3 cells;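 GFP signal in the first replicate; 1 = infected wells without compound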
An asterisk follows results filed as active; i = inactive; · = no result given.

SMILES	Insulin prom inh	Insulin prom inh cell count	PKD1 inh	GALR2 ag	HSV augment	HSV augment primary fold	RGS16-Gao HTS
CC(=O)Nc1cc(C(=O)N2CCc3ccccc3C2)ccc1Sc1ccc(F)cc1	-20	132	-3	0.6	i	0.97	102
CCOC(=O)c1ccc(NC(=O)C2(c3ccc(Cl)cc3)CCCC2)cc1	3	111	-5	-2.3	i	1.1	133
CCC(C)C(=O)Nc1nc2ccc(OC)cc2s1 (stereo unspecified)	·	·	·	·	i	0.99	95
Cc1cccc(N2C(=O)CS/C2=N\NC(=O)c2cccnc2)c1C	8	123	5	·	i	0.89	94
Cn1c(=O)c2[nH]c(NCCCN3CCOCC3)nc2n(C)c1=O	-3	82	4	-0.3	i	0.93	101
Cc1ccccc1/C=N/n1c(-c2ccccn2)n[nH]c1=S	·	·	·	·	i	0.96	100
COc1cccc(/C=C/C(=O)N2CCN(c3n[nH]c(=O)[nH]c3=O)CC2)c1OC	·	·	-7	·	i	0.99	100
COc1ccccc1CNC(=O)C(=O)NCC1CCCO1 (stereo unspecified)	-444	42	0	-0.2	i	0.91	103
Cc1cc(NC(=O)CSc2c(C)[nH]c3ccccc23)no1	10	42	3	-1.2	i	1	102
Nc1n[nH]c(N)c1N=Nc1ccc(F)cc1	43	93	4	·	i	0.96	61
O=C1N/C(=N\N=C\c2cccs2)SC1Cc1ccc(Cl)cc1Cl (stereo unspecified)	·	·	-4	-0.2	i	0.79	100
CCSc1cc(N2CCOCC2)nc(-c2ccccc2)n1	·	·	-1	1.1	i	0.87	95
CC(=O)c1ccc(Oc2nc3c(c(=O)n(C)c(=O)n3C)n2C)cc1	·	·	3	·	i	1	107
CCOc1ccc(NC(=O)NNC(=O)c2ccc(Cl)cc2Cl)cc1	·	·	4	·	i	0.91	103
CCc1nnc(NS(=O)(=O)c2ccc(N/C=C/C(=O)c3ccc(OC)cc3)cc2)s1	·	·	-4	·	i	1	104
COc1ccc(C(=O)Nc2cc(OCc3ccccc3)c(Cl)cc2Cl)cc1	0	114	3	-2.7	i	1.1	109
CC1CCN(C(=O)CNC(=O)c2cccc(OC(F)F)c2)CC1	-5	113	-4	·	i	1.1	98
CN(C)c1nc(N(C)C)nc(N(C#N)CN2C(=O)c3ccccc3S2(=O)=O)n1	·	·	-12	·	i	0.67	100
Cc1ccc2nc(NC(=O)Cc3cccs3)sc2c1	-12	111	-3	-0.4	i	1.1	72
CC(=O)Oc1ccccc1C1=NN(C(C)=O)C(c2ccccc2)C1 (stereo unspecified)	·	·	13	·	i	1.2	99
Cn1c(C(=O)NCCN2CCN(c3ccccc3F)CC2)cc2c(=O)n(C)c3ccccc3c21	·	·	8	-1.0	·	·	99
CCCCN(C(=O)NC(=O)Nc1ccc(C)cn1)S(C)(=O)=O	·	·	-2	0.0	i	1.1	97
CCOC(=O)c1sc(NC(=O)CSc2nnnn2-c2ccc(C)cc2)c(C(=O)OCC)c1C	·	·	-11	-1.7	i	0.98	104
O=C(CN1CCOCC1)Nc1ccc2c(c1)CCC2	·	·	·	·	i	1.1	103
Cc1sc2nnn(CC(=O)N3CCN(C(=O)c4ccco4)CC3)c(=O)c2c1C	13	72	-16	-0.6	i	1.1	·
CCOC(=O)CCCNC(=O)CCNC(=O)c1ccc(OCCC(C)C)cc1	·	·	·	·	i	0.91	100
O=S(=O)(NC1CCCCC1Sc1ncccn1)c1ccc(Cl)cc1 (stereo unspecified)	-22	79	-14	-2.4	i	1	27
Cc1ccccc1C(=O)Nc1nc(=S)ss1	-3	93	-17	-2.4	i	0.86	96
CC(C)(C)OC(=O)NC(CO)c1cn([C@@H](Cc2cc3ccccc3[nH]2)C(=O)N2CCN(C(=O)OC(C)(C)C)CC2)nn1 (stereo partly specified)	·	·	-3	·	·	·	101
COc1ccc(-c2csc(Cc3nnc(N4CCOCC4)n3-c3ccccc3)n2)cc1	-16	81	5	-0.4	i	0.84	96
COc1ccc(OC)c(C2C3=C(COC3=O)Nc3cc4c(cc32)OCO4)c1 (stereo unspecified)	·	·	-8	3.3	i	0.82	103
COc1cccc(CNc2ccc(N3CCC(C)CC3)cc2)c1OC	-17	46	-7	-1.6	i	0.71	51
C=CCSc1nccc(-c2cc(Cl)sc2Cl)n1	16	91	-1	-2.8	i	0.87	109
Cc1cccc(C)c1NC(=S)NCCSc1ccc(Cl)cc1	36	70	-7	·	i	0.91	101
CC1=CCC(C(=O)O)C(C(=O)Nc2cccnc2)C1 (stereo unspecified)	0	132	-4	·	i	0.79	103
CCc1ccccc1OCCCOc1ccc(OC)cc1	·	·	-11	-1.5	i	0.9	99
COc1ccc(CN(C(=O)c2cnccn2)C(C(=O)Nc2ccc(F)cc2)c2ccccc2)cc1 (stereo unspecified)	-40	127	-9	-1.3	i	0.74	105
COc1ccc(S(=O)(=O)N2CCCCC2)cc1NC(=O)c1ccc([N+](=O)[O-])o1	·	·	-3	·	i	0.78	102
COc1ccc(CC(=O)Nc2c3c(nn2-c2cccc(Cl)c2)CS(=O)C3)cc1 (stereo unspecified)	-23	47	-10	-0.9	i	0.97	108
CC(C(=O)Oc1ccc2c(c1)OCO2)N1C(=O)c2ccccc2C1=O (stereo unspecified)	31	110	-6	-1.9	i	0.62	96
CCSC1=NCCN1C(=O)Cc1ccc(-c2ccccc2)cc1	·	·	-3	·	i	1	97
N#CC1=C(N)NC(SCC(=O)Nc2ccc(Br)cc2)=C(C#N)C12CCCCC2	-16	79	-4	-0.7	i	0.99	102
CCOC(=O)CC1(C)SC(NC(C)=O)=NN1C(C)=O (stereo unspecified)	·	·	2	·	i	1.2	106
COc1ccc2cc(CCNC(=O)c3ccc4c(c3)OCO4)c(=O)[nH]c2c1	·	·	-7	-0.4	i	0.76	103
Cc1ccc(C)c2c1cc(C)c1nnc(SCC(=O)Nc3cccc(C(=O)O)c3)n12	·	·	·	·	i	0.92	101
Cc1csc(NC(=O)CSc2nnc(Cn3c(=O)sc4ccccc43)n2-c2ccccc2)n1	·	·	1	-3.7	i	1.1	83
C=CCN(c1cccc(C(F)(F)F)c1)S(=O)(=O)c1cccc(C(=O)OCC(=O)NC(N)=O)c1	-33	95	-5	-1.1	i	1	103
CCN(CC)c1ccc(/C=N/NC(=O)c2ccccn2)cc1	·	·	·	·	i	0.79	95
COc1cc(-n2c(=O)c3ccccc3n(CC(=O)c3ccc(F)cc3)c2=O)cc(OC)c1OC	35	185	8	·	i	0.94	103
CC(=O)c1c(C(C)=O)c(C)n(NC(=O)c2ccccc2Cl)c1C	5	77	-10	-0.5	i	0.98	100
COc1cc(CNc2nnnn2C)ccc1OCc1c(F)cccc1Cl	5	96	-12	·	i	1.1	102
CCOC(=O)c1ccc(NC(=O)CCn2nnc3ccccc32)cc1	35	142	6	-2.1	i	0.97	106
CC(=O)Nc1ccc(NC2=CC(=O)CC(C)(C)C2)cc1	-197	48	-7	-2.9	i	1	102
CCSc1cc(C)nc2c(-c3ccccc3)cnn12	·	·	·	·	i	0.97	102
Oc1c(Cl)cc(Cl)cc1/C=N/c1nc(-c2ccc(Cl)cc2)cs1	·	·	·	·	i	1.2	99
O=C(c1ccco1)N1CCN(S(=O)(=O)c2cccc3nsnc23)CC1	16	118	-7	-0.9	i	0.94	96
CC12CN(S(=O)(=O)c3ccccc3)CC(C)(CN(S(=O)(=O)c3ccccc3)C1)C2	23	129	-4	-1.5	i	0.95	107
COc1cc(/C=N/NC(=O)CCc2ccccc2)ccc1O	-29	47	-10	-1.4	·	·	101
O=C(CCN1C(=O)c2ccccc2C1=O)Nc1ccc(S(=O)(=O)N2CCOCC2)cc1	-246	75	6	-1.9	i	1	101
COCCCn1c(=S)[nH]c(C)c(C)c1=O	·	·	·	·	i	1.1	97

An excerpt from above in order of heavy-atom count, falling:
SMILES	Insulin prom inh	Insulin prom inh cell count	PKD1 inh	GALR2 ag	HSV augment	HSV augment primary fold	RGS16-Gao HTS
O=C(CCN1C(=O)c2ccccc2C1=O)Nc1ccc(S(=O)(=O)N2CCOCC2)cc1	-246	75	6	-1.9	i	1	101
COc1cccc(CNc2ccc(N3CCC(C)CC3)cc2)c1OC	-17	46	-7	-1.6	i	0.71	51
CC1CCN(C(=O)CNC(=O)c2cccc(OC(F)F)c2)CC1	-5	113	-4	·	i	1.1	98
CCCCN(C(=O)NC(=O)Nc1ccc(C)cn1)S(C)(=O)=O	·	·	-2	0.0	i	1.1	97
CCC(C)C(=O)Nc1nc2ccc(OC)cc2s1 (stereo unspecified)	·	·	·	·	i	0.99	95
Cc1ccccc1C(=O)Nc1nc(=S)ss1	-3	93	-17	-2.4	i	0.86	96

(continued)
SMILES	Insulin prom inh	Insulin prom inh cell count	PKD1 inh	GALR2 ag	HSV augment	HSV augment primary fold	RGS16-Gao HTS
O=C1CCCC/C1=C/NCc1ccc(F)cc1	20	144	2	·	i	0.98	107
Cc1c(Cl)cccc1NC(=O)CCC(=O)NNC(=O)c1ccccc1Cl	·	·	7	-1.8	i	0.94	99
O=S(=O)(NCC1CCCO1)c1cccc2nsnc12 (stereo unspecified)	·	·	8	0.0	i	1.1	103
Cc1ccc2c(=O)cc(C(F)F)oc2c1	·	·	-9	0.8	i	0.84	96
CC(=O)N1CCN(S(=O)(=O)c2cccc(C(=O)Nc3nccs3)c2)CC1	18	81	3	·	i	0.95	100
CCCC(C(=O)NCC1CCCO1)N(Cc1ccco1)C(=O)CNS(=O)(=O)c1ccccc1 (stereo unspecified)	-45	108	-4	-1.2	i	1	103
Cc1cc(C)nc(N2CCCC(C(=O)NCc3ccccc3F)C2)n1 (stereo unspecified)	-13	100	-3	·	i	1.1	101
CCOC(=O)c1cc(CC)sc1/N=C/C1C(=O)CC(C)(C)CC1=O	-193	147	-11	-2.2	i	0.97	101
O=C(NCc1ccco1)c1cc2c(s1)CSC2	-31	187	-1	-1.3	i	1	90
COc1cc(-c2nc3ccccn3c2/N=C/c2cc(OC)c(OC)c(OC)c2)ccc1O	-17	92	13	-2.5	i	0.99	·
O=C1c2oc3ccccc3c(=O)c2C(c2cccnc2)N1Cc1ccco1 (stereo unspecified)	38	43	-2	-0.9	i	0.93	98
COc1ccc(C)cc1NC(=O)CN1CCN(c2ccccc2F)CC1	·	·	-8	-0.1	i	0.9	103
COc1ccc(-n2nc(N)c(C(N)=O)n2)cc1	30	101	-5	·	i	0.91	92
Cc1ccc(C(=O)COC(=O)C2CC(=O)N(c3nc(-c4ccccc4)cs3)C2)cc1 (stereo unspecified)	32	101	-9	-0.9	i	0.98	106
COc1ccccc1NC(=O)OCC#CCOC(=O)Nc1ccccc1OC	·	·	·	·	i	1.1	105
O=C(Oc1ccc2ccccc2c1Br)N1CCCCCC1	0	125	-7	-3.8	i	0.93	101
Cc1ccc(-c2nnc(-c3cc(C)on3)o2)cc1	·	·	·	·	i	0.91	102
CCC1(CC)N([O-])C(C)=C(c2ccccc2)[N+]1=O	11	77	-1	-3.4	i	1	79
NC(=O)c1c(NC(NC(=O)c2ccco2)C(=O)c2ccc(Cl)cc2)sc2c1CCCC2 (stereo unspecified)	-26	138	-5	-2.9	i	1.1	104
O=C(NCc1ccccc1)C(c1ccc(F)cc1)N(Cc1cccs1)C(=O)c1cnccn1 (stereo unspecified)	-21	107	6	-1.3	i	0.9	103
Cn1c(=O)[nH]c(=O)c2c1nc(Br)n2Cc1ccccc1F	7	113	1	-2.1	i	0.92	·
CCN(CC)C(=O)CCSc1nnc(-c2ccncc2)o1	9	102	-17	1.1	i	1	124
CCOC(=O)N1CCN(C(=O)CCCn2c(=S)[nH]c3ccsc3c2=O)CC1	29	134	-7	·	i	0.94	102
COc1ccc(OC)c(N2C(N)=C(C#N)C(c3ccc(OC)c(O)c3)C3=C2CC(C)(C)CC3=O)c1 (stereo unspecified)	·	·	·	·	i	0.99	101
Cc1cc(C)c(C)c(OCC(=O)N2CCOCC2)c1	3	102	4	-2.5	i	1	99
CCOC(=O)c1[nH]c2ccccc2c1NC(=O)NC(C)C	·	·	·	·	i	0.83	99
O=C(CSc1nc2[nH]ncc2c(=O)[nH]1)c1ccccc1	·	·	-5	·	i	1	107
CCOC(=O)C1CCN(S(=O)(=O)c2ccc(CC)cc2)CC1	0	99	-6	-1.4	i	0.84	98
O=S(=O)(c1ccc(Cl)cc1)N1c2ccccc2Oc2nc3ccccc3nc21	10	133	-2	-2.8	·	·	90
Cn1c(-c2c(N)n(C3CCCC3)c3nc4ccccc4nc23)nc2ccccc21	-60	100	-20	0.4	i	0.99	110
